# Rango release inh: inhibitors of RanGTP-induced Rango-importin beta complex dissociation; O95149+P62826; Biochemical FRET Rango-importin beta, RanGTP-induced dissociation; Potency, µM (doses to about 46.1 µM), for the others: at the top dose activity change, negative = inhibition; 340,000 compounds, 0.071% hits; active means falling FRET ratio curve, often poorly fitted, with flat reads before Ran was added; inconclusive means other falling curves, or compound fluorescence or quenching; inactive means flat or rising ratio curve;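 also: potency is read from the fitted curve at half-maximal effect; % of control where 0% means no effect; nearly all actives have a fitted effect of over 45% in size; -100% = wells without RanGTP and RCC1; the record marks most hits as doubtful in a second field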
#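 Rango (0.1 uM)–importin beta (0.25 uM) complex; RanGTP-RCC1 trigger; 45 min RT; CFP/YFP FRET read.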
# miR-21 FLuc: raises the signal of a miR-21 reporter; HeLa miR-21 FLuc reporter, luciferase, 48 h; Potency, µM (highest dose often 38.3 µM), for inactives: at the top dose reporter change, positive = more light; 340,000 tested, under 10 active; AID 2288; active = well fitted rising curve with a large enough effect; inconclusive = small, poorly fitted or top-dose-only effect; inactive = no such curve, though single readings can be large or run the other way;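 also: % of control where 0% means no effect; miR-21 action dims this reporter so a rising signal means less miR-21 action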
#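 HeLa cells endogenously expressing miR-21, stably carrying CMV-driven firefly luciferase with a downstream miR-21 binding site, 2000 cells/well. Titrations up to approximately 40 uM, 48 hours; luciferase luminescence read.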
# GLA inh pH 4.5: alpha-galactosidase A (human) inhibition, pH 4.5 | P06280 | activity change, negative = inhibition, % at 105 µM | purified enzyme, 4-MU-alpha-Gal fluorescence, pH 4.5 | AID 1467 | 230,000 tested, under 10 active; inconclusive = small, poorly fitted or top-dose-only inhibition, or a rising curve; inactive = flat fitted curve, though single readings scatter; no compound was filed as active;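 also: 0% = full activity with enzyme and -100% = basal without enzyme; dose as in the result columns while the protocol names 77 µM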
# Rango-impB inh: inhibitors of Rango-importin beta complex formation | Rango CFP/YFP FRET sensor + importin beta, 45 min | Potency, µM (highest dose often 92.2 µM), for inactives: at the highest dose inhibition of complex formation | 340,000 compounds, 0.031% hits | AID 540263; active = rising FRET ratio curve, often small or poorly fitted; inconclusive = mostly compound fluorescence or quenching in the first reads; inactive = flat curves in all reads;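 also: potency is read from the fitted curve at half-maximal effect; 0% = DMSO wells and 100% = buffer wells lacking importin beta; nearly all actives have a fitted effect of over 15% in size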
# Target sequence (Q14974 whole entry, looked up): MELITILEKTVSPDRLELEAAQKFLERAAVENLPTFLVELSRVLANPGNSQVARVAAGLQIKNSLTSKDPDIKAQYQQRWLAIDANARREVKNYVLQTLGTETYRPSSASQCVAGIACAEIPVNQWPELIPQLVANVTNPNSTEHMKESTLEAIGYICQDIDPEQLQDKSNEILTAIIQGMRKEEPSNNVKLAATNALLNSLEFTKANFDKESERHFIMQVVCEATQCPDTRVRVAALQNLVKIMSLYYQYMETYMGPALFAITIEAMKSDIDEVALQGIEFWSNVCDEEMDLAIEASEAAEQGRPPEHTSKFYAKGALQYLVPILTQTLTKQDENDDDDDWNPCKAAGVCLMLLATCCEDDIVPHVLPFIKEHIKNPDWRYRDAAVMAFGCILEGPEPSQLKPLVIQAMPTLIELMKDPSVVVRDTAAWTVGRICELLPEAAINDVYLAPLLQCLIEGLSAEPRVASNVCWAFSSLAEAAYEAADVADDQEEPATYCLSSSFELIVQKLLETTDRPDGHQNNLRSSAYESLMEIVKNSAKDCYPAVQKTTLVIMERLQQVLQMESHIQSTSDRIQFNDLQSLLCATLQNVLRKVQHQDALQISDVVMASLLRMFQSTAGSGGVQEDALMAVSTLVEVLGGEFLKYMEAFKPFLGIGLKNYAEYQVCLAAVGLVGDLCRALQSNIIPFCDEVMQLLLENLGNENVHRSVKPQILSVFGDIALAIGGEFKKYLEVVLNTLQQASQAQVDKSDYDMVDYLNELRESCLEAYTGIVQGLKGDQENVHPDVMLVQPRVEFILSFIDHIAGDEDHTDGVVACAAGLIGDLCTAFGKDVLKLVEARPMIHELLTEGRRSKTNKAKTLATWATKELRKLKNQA
#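 FRET biosensor Rango (snurportin 1 IBB between N-terminal EYFP and C-terminal Cerulean), 50 nM in PBS/1 mM DTT/0.02% Tween-20/0.1% BSA, preincubated 5 min RT with compound; 0.125 microM importin beta added, 45 min RT, CFP/YFP FRET ratio read.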
# Numbers without * were called inactive; ? = inconclusive; . = not tested or not shown; & = joins results of further samples. This is a subset; the hit share may differ from the screen's.
item	structure	Rango release inh	miR-21 FLuc	GLA inh pH 4.5	Rango-impB inh
1	COc1ccc(Nc2cc(C)nc3c(C)cccc23)cc1OC	0%	18%	.	3.1%
2	CC1(C)Cc2ccccc2C(NNC(=O)c2ccncc2)=N1	-1%	3%	5	-0.2%
3	COCC(=O)Nc1cc(C(=O)Nc2cccc(C)c2C)ccc1Cl	2%	-35%	1	-2.1%
4	CCN(CC)CCNC(=O)c1ccccn1	-1%	-1%	-3	1.0%
5	CCOc1ccc(-c2nc(C#N)c(N3CCOCC3)o2)cc1	6%	-27%	4	0.7%
6	O=S(=O)(NC1CCCC1)c1ccccc1Cl	-3%	-2%	-10	-0.1%
7	Cc1c(N(C)S(=O)(=O)c2cc(C(=O)NCC3CCCO3)ccc2Cl)c(=O)n(-c2ccccc2)n1C (configuration not stated)	-15%	.	.	1.7%
8	CCNC(=S)N(Cc1ccc2c(c1)OCO2)C1CC(=O)N(c2ccc(F)cc2)C1=O (configuration not stated)	35%	15%	-17	-0.6%
9	O=C(CCN1C(=O)c2ccccc2S1(=O)=O)Nc1ccc(F)c([N+](=O)[O-])c1	-5%	.	.	3.8%
10	CCCCn1c(NCc2ccccc2NS(=O)(=O)c2ccc(C)cc2)nc2ccccc21	-19%	16%	-9	0.0%
11	COc1cc(NS(=O)(=O)c2ccc(NC(=O)CCC(=O)O)cc2)nc(OC)n1	17%	0%	.	0.4%
12	COc1ccc(C(=O)Nc2cc(OC)c(NC(=O)c3ccco3)cc2OC)cc1	-8%	11%	0	?
13	Cc1ccc(NC(=O)Cc2nc(COC(=O)c3c(F)cccc3Cl)cs2)cc1	-4%	.	.	-0.9%
14	COc1ccc(CN2CCCC(N3CCN(c4ccc(OC)cc4)CC3)C2)cc1 (configuration not stated)	-11%	2%	.	-0.5%
15	Cc1ccnn1-c1ccc(C(=O)OCC(=O)Nc2ccc(F)cc2)cc1	-7%	.	.	?
16	CC(=O)c1ccc(NC(=O)CCNS(=O)(=O)c2cccc3nonc23)cc1	-12%	2%	-2	0.0%
17	COC(=O)CCC(=O)Nc1ccc(S(=O)(=O)Nc2nc(C)cc(C)n2)cc1	5%	0%	.	-0.4%
18	COC(=O)c1ccc(N(CC(=O)NC2CCCC2)C(=O)c2ccc(C)s2)cc1	10%	0%	.	-1.8%
19	Cc1ccccc1OCCC(=O)OCC(=O)NNC(=O)c1cccs1	9%	.	.	-4.0%
20	CCN(CC)C(=O)c1sc(N)c(C#N)c1C	-16%	-1%	2	4.8%
21	Cc1nc2c(c(C)nn2-c2ccccc2)c(C)c1C	15%	.	.	-1.0%
22	CC(O)CNc1nc2ccccc2n1CC(=O)NC12CC3CC(CC(C3)C1)C2 (configuration not stated)	3%	-4%	4	0.0%
23	CCn1c(-c2ccc(Cl)cc2)n[nH]c1=S	0%	-2%	3	1.7%
24	COc1ccc(CNS(=O)(=O)CCNC(=O)c2cccc(OC)c2)cc1	0%	.	.	-0.9%
25	Cc1cc(C(=O)N/N=C/c2c(C)nn(-c3ccccc3)c2C)n[nH]1	-12%	-61%	8	1.3%
26	COc1cc(C)c(S(=O)(=O)NCCCn2ccnc2)cc1C	24%	0%	.	0.1%
27	Cc1cc(OCc2cc(C(=O)NCc3cc(C(C)C)no3)no2)cc(C)c1Cl	4%	-55%	.	-0.9%
28	N#Cc1cc(S(=O)(=O)N2CCOCC2)ccc1N1CCOCC1	-6%	1%	.	3.5%
29	C=CCOC(=O)C1=C(C)NC(=O)NC1/C=C/c1ccccc1 (configuration not stated)	-9%	-4%	6	1.2%
30	O=C(NCc1ccccc1)C(=O)NCC1OCCN1S(=O)(=O)c1ccc2c(c1)OCCO2 (configuration not stated)	8%	-2%	0	-0.2%
31	COc1ccc(S(=O)(=O)N(C)C[C@H]2Oc3ccc(NS(=O)(=O)c4ccc(F)cc4)cc3C(=O)N([C@H](C)CO)C[C@@H]2C)cc1	5%	.	.	-2.9%
32	CCOc1ccc(S(=O)(=O)N2CCOCC2)cc1[N+](=O)[O-]	-2%	5%	1	4.4%
33	Cc1c(NC(=O)C(CC(=O)O)NCc2ccco2)c(=O)n(-c2ccccc2)n1C (configuration not stated)	5%	-6%	-2	-1.1%
34	CS(=O)(=O)N1CCCC(C(=O)Nc2ccccc2F)C1 (configuration not stated)	6%	0%	.	0.2%
35	Cc1ccc(C)c(NS(=O)(=O)c2ccc(-c3ccc(=O)[nH]n3)o2)c1	16%	1%	.	?
36	COc1cc(C)c(NC(=O)Cc2ccsc2)cc1OC	-6%	2%	.	-3.2%
37	Cn1c(=NC(=O)CCS(=O)(=O)c2ccccc2)sc2cc(F)ccc21	-5%	.	.	-4.4%
38	O=C(NN1C(=O)C2C3C=CC(C3)C2C1=O)C(O)c1ccccc1 (configuration not stated)	-8%	-27%	-6	-2.2%
39	Cn1c(=O)c2c(nc(CCC3CCCC3)n2C)n(C)c1=O	22%	.	.	1.9%
40	O=C(CSc1nncn1-c1ccccc1)NC1CCCCC1	-3%	-2%	-2	-1.5%
41	CN(C)C(CNC(=O)C1CCCN1C(=O)c1cccs1)c1ccccc1 (configuration not stated)	-2%	.	.	2.6%
42	O=c1cnnc(Nc2cccc(C(F)(F)F)c2)[nH]1	-1%	-3%	-4	-0.3%
43	CC(=O)Nc1ccc(S(=O)(=O)N2CCC(C(=O)NCCC(=O)NCc3ccccc3)CC2)cc1	-3%	0%	.	3.1%
44	O=C(CSc1nc(-c2ccc(F)cc2)nc2c1Cc1ccccc1O2)Nc1ccc(C(=O)O)cc1	-2%	-5%	-4	-3.6%
45	Cc1c(Cl)cccc1NC(=O)Nc1cccnc1	0%	-18%	.	1.2%
46	S=C(Nc1ccccc1)N1CCn2c1nc1ccccc12	-2%	-16%	0	-0.7%
47	CC(C)C(=O)NCC(c1cccs1)S(=O)(=O)c1ccc(F)cc1 (configuration not stated)	-4%	3%	.	0.3%
48	O=C(O)c1cc(Cl)ccc1OS(=O)(=O)c1ccc(Cl)s1	5%	.	.	2.8%
49	NC(=O)[C@H]1CC2(CC(c3cccc(NC(=O)COc4ccc(Cl)cc4)c3)=NO2)CN1C(=O)CC(c1ccccc1)c1ccccc1 (some centres not stated)	20%	?	-20	5.3%
50	N#CCCN1CCNCC1	-6%	-2%	-6	-0.9%
51	CCOC(=O)C1(Cc2ccc(OC)cc2)CCN(C(=O)C2=CCCC2)CC1	-1%	-7%	5	-1.2%
52	CC(C)(C)C1CCc2[nH]c3ccccc3c(=O)c2C1 (configuration not stated)	2%	-36%	-1	-0.8%
53	CC1CCN(C(=O)c2ccc(NS(C)(=O)=O)cc2)CC1	19%	-9%	9	-2.7%
54	O=C(Nc1ccc(F)c(F)c1)c1oc2ccccc2c1NC(=O)C1CCCO1 (configuration not stated)	-14%	-5%	0	-4.8%
55	CCOC(=O)c1nnn(-c2nonc2N)c1CN1CCc2ccccc2C1	-6%	-2%	5	-6.8%
56	C=CCNC(=S)Nc1ccc(Cl)cc1F	25%	-6%	-1	4.2%
57	CCN(CC)CCCNC(=O)CCC(=O)NNc1nc2ccccc2c2nc(C)nn12	-9%	3%&8%	-3	5.9%
58	COCCNC(=S)N(CCc1c(C)[nH]c2ccc(C)cc12)Cc1ccco1	-6%	17%	-24	-1.0%
59	COc1ccc(/C=C2\Sc3ccc(C(=O)NCc4cccnc4)cc3N(C)C2=O)cc1OC	1%	5%	-24	?
60	CC1CCCC(NC(=O)c2ccc3c(=O)n(CC4CCCO4)c(=O)[nH]c3c2)C1C (configuration not stated)	-6%	13%	23	-0.7%

# Following part:
item	structure	Rango release inh	miR-21 FLuc	GLA inh pH 4.5	Rango-impB inh
61	Cc1ccccc1-n1ncc2c1CC(C)(C)CC2NC(=O)CCCN1CCCC1=O (configuration not stated)	-10%	-3%	.	5.0%
62	Cc1cccc(NC(=O)CSCc2cc(=O)n3c(C)csc3n2)c1C	15%	-1%	.	-0.4%
63	O=C1CC(C(=O)Nc2ccccc2)S/C(=N\N=C\c2ccco2)N1 (configuration not stated)	24%	-7%	4	2.0%
64	NS(=O)(=O)c1ccc(CNC(=O)c2ccc3ccccc3n2)cc1	-8%	-18%	.	-2.8%
65	O=C(N/N=C\c1ccc(Cl)s1)c1ccc(Cn2cccn2)o1	11%	-9%	-4	4.8%
66	Cc1cc(C(=O)Nc2cccnc2)cs1	3%	-10%	2	?
67	COC(=O)c1ccccc1S(=O)(=O)N(Cc1ccco1)Cc1cc2cc(OC)ccc2[nH]c1=O	7%	7%	-1	-0.4%
68	CN(CC1CCOCC1)C(=O)CC1C(=O)NCCN1Cc1ccccc1F (configuration not stated)	-4%	-1%	.	-2.8%
69	CCn1nc(C(=O)NNC(=O)CCOc2cc(C)ccc2C)c2ccccc2c1=O	11%	-2%	.	-0.2%
70	COc1ccccc1N/C(=N/S(=O)(=O)c1ccc(Cl)cc1)c1ccccc1	8%	-7%	7	-1.4%
71	COc1ccc(-c2nnc(SCC(=O)Nc3ccc4c(c3)OCCO4)n2N)cc1OC	-8%	-14%	7	?
72	O=C(c1cc2ccccn2n1)N1CCN(c2cccc(C(F)(F)F)c2)CC1	3%	-3%	-4	0.1%
73	CN(C(=O)c1nn(C)c2c1CSc1ccccc1-2)c1ccccc1Cl	8%	-19%	.	-0.1%
74	CCCCNC(=O)C1CCN(S(=O)(=O)N2CCOCC2)CC1	-7%	-2%	-6	4.0%
75	Cc1cc(Nc2cccc(C)c2C)n2ncnc2n1	?	-24%	2	-1.3%
76	O=C(Cn1nc(C(=O)O)c2ccccc2c1=O)Nc1nc(-c2ccccc2)cs1	16%	-27%	0	7.2%
77	CCOc1ccc(NC(=O)CN2CCN(CC(=O)Nc3ccc(C(=O)OC)cc3)CC2)cc1	-7%	2%	-13	-0.6%
78	Cc1ccc(-c2nn3cnnc3c3ccccc23)cc1	5%	-1%	4	-0.7%
79	Cc1cccc(N2CCN(S(=O)(=O)c3c(C)[nH]c(C)c3C(=O)N3CCCCC3)CC2)c1C	0%	16%	.	-1.8%
80	CC(C)CN(C(=O)c1ccc(-n2cncn2)c([N+](=O)[O-])c1)C1CCS(=O)(=O)C1 (configuration not stated)	1%	.	.	6.9%
81	S=C(Nc1ccccc1)N1CCN(C2CCCCC2)CC1	0%	-9%	10	-0.3%
82	O=C(Nc1ccc(N2CCN(C(=O)c3cccs3)CC2)cc1)c1ccc(F)cc1	2%	16%	.	1.5%
83	Cc1ccc(C(=O)OCC(=O)N(CC(C)C)c2c(N)n(Cc3ccccc3)c(=O)[nH]c2=O)cc1[N+](=O)[O-]	7%	.	.	-2.2%
84	COCCN(C(=O)c1ccc(NC2CC2)c([N+](=O)[O-])c1)c1c(N)n(CC(C)C)c(=O)[nH]c1=O	-15%	.	.	0.9%
85	CCn1cc(C2=NC(c3ccccc3)CO2)c2ccccc21 (configuration not stated)	8%	-36%	2	-3.2%
86	O=C(NCCCSc1ccccc1)c1cccnc1	10%	-2%	.	-2.4%
87	Cc1ccc(C)c(N2CCN(C(=O)CCc3nc(-c4cccc(C(F)(F)F)c4)no3)CC2)c1	-7%	.	.	-0.3%
88	COc1ccc(CN(C)CC(O)COc2ccc(-c3ccccc3)cc2)cc1OC (configuration not stated)	1%	13%	.	2.8%
89	Cc1ccc(CCNC(=O)C2CCN(S(=O)(=O)N3CCCC3)CC2)cc1	-1%	1%	-20	7.6%
90	Cc1nn(CC(=O)Nc2c(C)n(C)n(-c3ccccc3)c2=O)c(C)c1[N+](=O)[O-]	14%	-1%	-4	5.0%
91	Cc1ccc(CSCCNC(=O)CSc2ccccc2)cc1	33%	-2%	-6	1.6%
92	CCOc1ccc2nc(NC3=NC(c4ccc(OC)cc4)CC(=O)N3)nc(C)c2c1 (configuration not stated)	-15%	-11%	?	-0.2%
93	Cc1ccc(Cl)cc1NC(=O)CN1C(=O)NC(C)(C2CC2)C1=O (configuration not stated)	7%	.	.	-1.1%
94	Cc1nccc(-c2ccc(-n3cnc4ccccc43)cc2)n1	-8%	-7%	4	0.9%
95	CC(C)OC(=O)c1cccnc1SCC(=O)N(C)c1ccccc1	1%	-5%	0	-0.1%
96	CCOC(=O)C1(CCCc2ccccc2)CCN(C(=O)C2CCCN(C(N)=O)C2)CC1 (configuration not stated)	-7%	-5%	-3	2.5%
97	Cc1ccc(CC(=O)OCC(=O)NC2CCCC(C)C2C)cc1C (configuration not stated)	3%	0%	-11	-3.4%
98	CC(=O)N=c1sc2cc(C)ccc2n1C	6%	-33%	2	3.0%
